TRPML1 agonist – qHTS for Agonists of the Human Mucolipin Transient Receptor Potential 1 (TRPML1). Mucolipin-1 (Homo sapiens), Q9GZU1. TRPML1-expressing cells, Ca2+ dye fluorescence, FDSS; host cell line not named in the record; reference of the full effect not given here. activation, % (no concentration beside the values). hit rate 0.12% among 410,000; in the data active = activation above about 50%; inconclusive = about 30% to 50%; inactive = below about 30%; further: 0% is about no effect; the text of the record puts the active cut at 80%
Target sequence (Q9GZU1 whole entry, looked up): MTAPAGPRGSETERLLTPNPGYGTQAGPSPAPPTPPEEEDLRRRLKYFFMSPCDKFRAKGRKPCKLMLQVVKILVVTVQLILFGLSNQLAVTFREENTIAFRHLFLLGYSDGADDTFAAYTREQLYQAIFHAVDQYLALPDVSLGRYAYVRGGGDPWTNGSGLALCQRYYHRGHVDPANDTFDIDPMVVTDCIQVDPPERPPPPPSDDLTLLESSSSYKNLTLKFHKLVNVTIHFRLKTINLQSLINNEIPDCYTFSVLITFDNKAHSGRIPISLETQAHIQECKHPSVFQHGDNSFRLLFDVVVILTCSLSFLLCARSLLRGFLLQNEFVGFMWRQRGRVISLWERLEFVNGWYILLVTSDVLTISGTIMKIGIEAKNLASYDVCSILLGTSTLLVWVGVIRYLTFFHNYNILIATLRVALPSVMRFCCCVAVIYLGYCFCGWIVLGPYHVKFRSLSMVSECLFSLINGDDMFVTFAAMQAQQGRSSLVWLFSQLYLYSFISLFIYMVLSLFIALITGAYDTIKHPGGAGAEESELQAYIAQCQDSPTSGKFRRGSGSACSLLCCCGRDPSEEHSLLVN
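Tetracycline-induced TRPML1-DL cells are seeded and incubated overnight before loading with a no-wash Ca2+ dye and quencher. Agonist activity is taken from the 110 s fluorescence read following compound pin-transfer on an FDSS, before EC80 54-4 challenge.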
PINK1 expr mod – A Quantitative High throughput Screen to Identify Chemical Modulators of PINK1 Expression; hit rate 0.2% among 410,000; AID 624263, 2012; PINK1 immunofluorescence, high-content cytometry, 24 h; Potency, µM (top dose mostly 76.6 µM), for inactives: at the highest dose activation (PINK1 increase), usual class: activators; active = well fitted activation curve with a large enough effect; inconclusive = small, poorly fitted or top-dose-only effect; inactive = flat fitted curve, though single readings scatter; cell line not stated here;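 further: potency means the concentration at half of the fitted maximal effect; % of control where 0% means no effect; nearly all actives have a fitted effect of over 65% in size; a mitochondrial uncoupler was the plate control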
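Stable cell line, 250 cells/well, 12 h attachment; compounds pinned at 5 concentrations, 24 h; CCCP control. Fixed with nuclear dye, primary antibodies 12 h at 10 degrees C, secondary plus cell stain; laser-scanning cytometer read.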
CtBP-E1A inh – qHTS Assay for Inhibitors of the CtBP/E1A Interaction; hit rate 0.49% among 340,000; activity change, % (no concentration beside the values); CtBP / adenovirus E1A interaction (AlphaScreen); AlphaScreen GST-E1A/His-CtBP binding, 1536-well; hits give low values; control for the full effect not named in the record; in the data active means activity change below about -65%; inconclusive means about -30% to -65%; inactive means above about -30%; further: on the % scale 0 is the no-effect control and ±100 the full control effect; compound concentration not given in the record
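Homogeneous bead-based format: GST-tagged E1A captured on glutathione donor beads, His-tagged CtBP on nickel acceptor beads; compounds precede bead addition by 2 h at 37 °C.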
D2 ag – Beta-Arrestin HTS for Positive Allosteric Modulators of the Human D2 Dopamine Receptor: Agonists. D(2) dopamine receptor (Homo sapiens), P14416. DiscoveRx PathHunter D2 beta-arrestin, luminescence, 90 min; 100% = 57 uM dopamine signal. activation, % (no concentration beside the values). hit rate 0.084% among 360,000. AID 624465, 2012; in the data active = activation above about 40%; inconclusive = about 15% to 40%; inactive = below about 15%; further: compound concentration not given in the record; the text of the record calls up to 30% inactive
Target sequence (P14416 whole entry, looked up): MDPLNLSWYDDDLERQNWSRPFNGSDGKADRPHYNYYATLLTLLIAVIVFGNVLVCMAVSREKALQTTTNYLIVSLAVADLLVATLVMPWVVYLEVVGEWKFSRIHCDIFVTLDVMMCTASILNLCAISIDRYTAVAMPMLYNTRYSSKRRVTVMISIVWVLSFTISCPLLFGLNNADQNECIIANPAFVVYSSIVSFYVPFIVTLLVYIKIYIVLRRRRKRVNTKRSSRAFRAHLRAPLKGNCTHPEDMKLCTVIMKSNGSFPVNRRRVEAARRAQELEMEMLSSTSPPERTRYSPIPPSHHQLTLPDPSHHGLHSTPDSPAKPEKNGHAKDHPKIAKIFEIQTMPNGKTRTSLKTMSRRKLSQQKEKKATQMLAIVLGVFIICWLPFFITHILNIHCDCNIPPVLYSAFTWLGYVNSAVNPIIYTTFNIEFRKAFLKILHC
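Agonist mode: compounds alone added to overnight-plated D2 PathHunter cells for 90 min at 37 C, with 57 uM final dopamine (EC100) defining full response. Beta-arrestin recruitment detected by chemiluminescent reagent, read after 1 h at ambient temperature.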
Six1-Eya2 inh – qHTS Assay for Inhibitors of the Six1/Eya2 Interaction. Homeobox protein SIX1 (Homo sapiens) + Protein phosphatase EYA2 (Homo sapiens), …. AlphaScreen GST-Six1/His-Eya2 binding, biochemical; hits give low values; control for the full effect not named in the record. activity change, % (concentration not given with the values). hit rate 0.56% among 360,000; in the data active = activity change below about -65%; inconclusive = about -30% to -65%; inactive = above about -30%; further: on the % scale 0 is the no-effect control and ±100 the full control effect
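GST-Six1 + His-Eya2 (5X stock: 250/500 nM); Tris pH 8.0, 300 mM NaCl, 0.05% BSA, 0.02% Tween 20; GSH donor/Ni acceptor beads; 1 h 37 °C dark; AlphaScreen readout.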
D2 potentiator – Beta-Arrestin HTS for Positive Allosteric Modulators of the Human D2 Dopamine Receptor: Potentiators; D(2) dopamine receptor (Homo sapiens), P14416; DiscoveRx D2 beta-arrestin cells, luminescence, 90 min; 100% = 57 uM dopamine signal; hit rate 0.23% among 360,000; potentiation, % (test concentration not listed); active = potentiation of 50% or more; inconclusive = 30% to 50%; inactive = 30% or less;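 further: compound concentration not given in the record; tested on top of an EC20 dose of dopamine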
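PathHunter D2 cells, attached overnight at 37 deg C, received compound in DMSO plus dopamine at EC20 (50 nM final) for 90 min at 37 deg C. Beta-arrestin recruitment was read as luminescence after 1 h with detection reagent at ambient temperature.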
* marks the source's active call; other numbers are inactive results; u = inconclusive; x = no result given; [ ] = remark or other dose.

no.	Structure	TRPML1 agonist	PINK1 expr mod	CtBP-E1A inh	D2 ag	Six1-Eya2 inh	D2 potentiator
1	Cc1ccc(S(=O)(=O)N2CCCc3ccccc32)cc1	1.5	6.4%	-17	-4.9	20	-6
2	O=C(O)CSCc1nc2ccccc2s1	-0.4	-0.3%	8	-0.9	5	-3
3	COc1ccc(C(=O)c2c3ccc(C(F)(F)F)cc3[n+]([O-])n2CCCC(N)=O)cc1	0.1	-1.3%	0	-2.7	8	-3
4	CCCOc1ccc(/C(O)=C2\C(=O)C(=O)N(CCCOC)C23C(=O)N(C)c2ccccc23)cc1 (stereo not given)	0.4	-0.8%	3	-2.0	6	-3
5	O=C(CNC(=O)c1ccncc1)N/N=C/c1cc(Br)ccc1O	0.2	-0.4%	-66*	-0.8	u	-11
6	O=C(/C=C/[C@H]1O[C@@H](n2ccc(=O)[nH]c2=O)[C@H](O)[C@@H]1O)NCCN1CCCCC1	0.9	0.2%	-9	-4.0	12	-6
7	Cc1ccccc1Oc1nc2ccccn2c(=O)c1/C=C(\C#N)C(=O)Nc1c(C)n(C)n(-c2ccccc2)c1=O	-0.4	-1.2%	-1	-1.3	-2	-22
8	COc1ccc(OC)c(S(=O)(=O)Nc2cccc3c(O)cccc23)c1	1.9	0.6%	-2	1.9	-5	1
9	O=C(Nc1nc(-c2ccc3c(c2)OCO3)cs1)C1COc2ccccc2O1 (stereo not given)	1.2	1.7%	-16	-7.3	-7	0
10	COc1ccc(-n2nc(C(=O)NCC(=O)NC3CCCCCC3)c3ccccc3c2=O)c(OC)c1	-0.3	7.9%	-3	5.3	5	-3
11	COc1ccc(C(=O)N2CCC(C(=O)NCc3ccccn3)CC2)cc1	0.5	0.2%	1	0.2	1	27
12	C#CCNc1cc(-c2ccccc2)nc2ncnn12	1.3	-1.2%	3	2.1	-3	-6
13	COc1ccc(C(=O)O/N=C2\CCCc3nonc32)cc1	0.3	2.5%	6	-0.5	3	14
14	Cc1nn(C)c(C(=O)Nc2ccc(Cl)c([N+](=O)[O-])c2)c1Cl	-0.2	13%	0	1.3	2	3
15	Cc1sc(N)nc1C12CC3CC(CC(C3)C1)C2	1.9	-0.7%	-23	-2.5	-16	2
16	Cc1ccc(S(=O)(=O)N2CCCCC2CCNC(=O)C(=O)NCCc2ccco2)cc1 (stereo not given)	-0.3	u	0	-1.2	-17	14
17	COc1ccc2c(c1)C1(Nc3ccccc3C(=O)N1c1ccccc1)C(=O)N2 (stereo not given)	0.1	x	12	-3.7	3	4
18	CCN1CCCC1CNC(=O)c1cc(N)ccc1OC (stereo not given)	0.7	2.7%	8	-3.1	2	-22
19	Cc1ccc(Cn2c(=N)n(CC(O)COc3ccccc3)c3ccccc32)cc1 (stereo not given)	-0.6	-3.2%	-4	-2.6	-5	-26
20	Cc1cc(C)c2oc(C(=O)Nc3nnc(C(C)C)s3)cc(=O)c2c1	0.6	2.0%	x	0.9	2	-2
21	COc1ccc(S(=O)(=O)N2CCN(CC(=O)Nc3ccccc3OC)CC2)cc1	-0.1	2.0%	-12	4.2	9	-8
22	C=CCN(c1cccc(C(F)(F)F)c1)S(=O)(=O)c1cccc(C(=O)OCC(=O)NC)c1	1.5	1.6%	11	0.1	-1	-2
23	COc1ccc(C(=O)NCCc2nnc3ccc(SCC(=O)N4CCCCC4)nn23)cc1	-0.5	1.7%	6	-0.4	2	-4
24	CSc1c(SCc2ccccc2)cnn(Cc2ccccc2)c1=O	0.0	2.0%	-1	-0.2	10	-7
25	CCOC(=O)C1=C(N)N(c2ccc(N3CCCCC3)cc2)C(=O)C1	-0.2	-0.4%	-3	-3.8	-13	-21
26	Cc1cc(C)nc(NS(=O)(=O)c2ccc(NC(=O)c3ccc(S(=O)(=O)N4CC(C)OC(C)C4)cc3)cc2)n1 (stereo not given)	-0.5	-0.3%	-10	1.0	6	-9
27	COc1ccc(S(=O)(=O)N2CCOCC2)cc1NC(=O)COc1ccc2c(C)cc(=O)oc2c1	-0.1	15%	-6	5.7	-1	-4
28	CCOC(=O)N1CCN(C(=O)CSc2cc(C)nc3c(-c4ccccc4OC)c(C)nn23)CC1	4.2	0.8%[38.3 µM]	0	1.3	-1	-7
29	COCCCNC(=O)CC1Oc2ccccc2NC1=O (stereo not given)	-0.2	6.1%	4	-7.6	-4	-8
30	CCOC(=O)C(NC(C)=O)C(=O)Nc1ccc(C(C)C)cc1 (stereo not given)	2.9	-1.5%	-9	-3.4	6	-6
31	COc1ccc(NC(=O)c2ccc(COCC(F)(F)F)cc2)cc1OC	0.0	6.4%	-9	0.3	7	-5
32	Cc1c(S(=O)(=O)N2CCCC(C(=O)O)C2)cnn1C (stereo not given)	-0.7	-1.2%	2	-1.8	7	-4
33	CCCN1C(=O)c2ccccc2NC1c1cc(OC)c(OC)c(OC)c1 (stereo not given)	-0.2	-0.5%	3	-0.5	10	-11
34	CN(C)Cc1c(-c2ccc(Cl)cc2)nc2ccccn12	0.3	-0.3%	1	3.1	4	-5
35	O=C(CCc1ccc(O)cc1)NN=Cc1cc(Br)ccc1O	-0.8	5.8%	-13	-2.5	u	-14
36	Cn1cnc(S(=O)(=O)NC2CCN(Cc3c(F)cccc3Cl)CC2)c1	0.1	1.1%	-2	-1.6	2	-1

Full records, quoted from the list:
Shown for CCOC(=O)N1CCN(C(=O)CSc2cc(C)nc3c(-c4ccccc4OC)c(C)nn23)CC1 : TRPML1 agonist = 4.2; PINK1 expr mod = 0.8%[38.3 µM]; CtBP-E1A inh = 0; D2 ag = 1.3; Six1-Eya2 inh = -1; D2 potentiator = -7
Shown for CCOC(=O)C(NC(C)=O)C(=O)Nc1ccc(C(C)C)cc1 (stereo not given) : TRPML1 agonist = 2.9; PINK1 expr mod = -1.5%; CtBP-E1A inh = -9; D2 ag = -3.4; Six1-Eya2 inh = 6; D2 potentiator = -6

(listing goes on)
no.	Structure	TRPML1 agonist	PINK1 expr mod	CtBP-E1A inh	D2 ag	Six1-Eya2 inh	D2 potentiator
37	OC(CNCCNc1ncccc1C(F)(F)F)Cn1ccc2ccccc21 (stereo not given)	2.4	9.2%	x	-1.0	1	-11
38	O=C(NC(c1ccc(F)cc1)c1ccc2ccccc2n1)C1CCN(Cc2ccc3ccccc3n2)CC1 (stereo not given)	0.0	0.5%	u	-7.7	0	-14
39	CCOc1ccc(-n2nnnc2SCC(=O)N2CCOCC2)cc1	1.1	-2.0%	-1	-0.2	4	-5
40	COc1ccc(C(=O)N/C(=C\c2cn(S(=O)(=O)N(C)C)c3ccccc23)C(=O)NCCN2CCOCC2)cc1	0.9	0.5%	2	0.7	-1	-26
41	O=C(O)c1ccccc1C(=O)OCc1ccccc1	-0.8	0.1%	-2	-1.3	-1	-8
42	Nc1cc(-c2ccc(Br)cc2)nc2cc(-c3ccccc3)nn12	-0.7	6.7%	26	1.9	22	1
43	O=C(CCS(=O)(=O)c1ccc2c(c1)NC(=O)CS2)NCc1ccccc1Cl	1.2	1.2%	x	3.4	-2	-1
44	Cc1ccc(NC(=O)Nc2cc(C(F)(F)F)c[nH]c2=O)cc1	0.4	5.3%	-1	-1.8	8	-4
45	CCCCc1nnc(NC(=O)CSc2nc(C)cc(=O)[nH]2)s1	1.9	6.2%[38.3 µM]	14	-2.2	2	-2
46	COc1ccccc1NC(=S)N(CCc1nc2cc(C)c(C)cc2[nH]1)Cc1cccnc1	0.5	x	-7	-1.8	-15	-12
47	Cc1ccc(CN(C(=O)c2ccc([N+](=O)[O-])cc2)C2CCS(=O)(=O)C2)o1 (stereo not given)	0.6	0.5%	-1	5.2	0	3
48	CN(C)S(=O)(=O)n1cc(/C=C(\NC(=O)c2ccccc2)C(=O)NCCN2CCOCC2)c2ccccc21	-0.4	-1.2%	0	-5.3	-1	-20

A few values from the list:
D2 ag result of no. 8 : 1.9
D2 potentiator result of no. 23 : -4

New compounds follow
no.	Structure	TRPML1 agonist	PINK1 expr mod	CtBP-E1A inh	D2 ag	Six1-Eya2 inh	D2 potentiator
49	COC(=O)c1ccc(CSC2=NC[C@@H]3[C@@H]4C(=O)N(Cc5ccccc5)C(=O)[C@@H]4[C@](C)(C(=O)OC)N23)cc1	1.7	-1.3%	3	-1.4	-1	-7
50	Cc1ccc(C2OC(=O)C=C2c2ccccc2)cc1 (stereo not given)	0.1	0.5%	4	-2.9	0	-8
51	Cc1ccc(-c2nc(CSCC(=O)NCC3CCCO3)c(C)o2)cc1 (stereo not given)	-1.2	1.8%	5	-3.3	-2	-4
52	CC(C)(C)c1cnnn1-c1ccc(-c2csc(N)n2)cc1	0.0	-5.1%[38.3 µM]	7	0.4	-4	-6
53	CN(C)CCCNc1nc(-c2ccccc2)c2c(c1C#N)CC(C)(C)OC2	x	-0.2%	0	-6.0	6	-19
54	Cc1ccc(S(=O)(=O)CCC(=O)Nc2ccccc2Br)cc1	0.3	1.1%	2	-4.5	-1	-15
55	Cc1cc(NC(=O)C2CC=CCC2C(=O)O)ccc1NC(=O)c1ccccc1 (stereo not given)	-0.6	-0.5%	0	-0.7	5	3
56	O=C(NC(c1ccc(Cl)cc1)c1ccsc1)C1CCN(Cc2cccc(Cl)c2)CC1 (stereo not given)	0.1	4.8%	-7	-1.2	-10	-16
57	CCOC(=O)c1ccc(S(=O)(=O)N2CCN(C3CC(=O)N(c4ccccc4C(F)(F)F)C3=O)CC2)cc1 (stereo not given)	0.0	-0.1%	1	-1.1	-4	19
58	Cc1ccc(CNC(=O)C(=O)NCC2CCCN2S(=O)(=O)c2cc(C)ccc2C)cc1 (stereo not given)	-0.8	1.7%	-2	-1.0	2	-3
59	Cc1cc(C(=O)NNC(=S)NC(C)c2ccccc2)c2ccccc2n1 (stereo not given)	-1.0	-1.9%	-1	-13	1	-41
60	CN1CCN(CC(=O)Nc2nc3c(s2)CCCC3)CC1	1.9	1.4%	3	-3.7	4	-9
61	Cc1cccc2cc3cccc(C)c3nc12	-0.3	3.5%	x	-4.4	3	-12
62	Cc1ccc(-c2nnc(-c3ccc(NC(=O)c4cccs4)cc3)o2)cc1	0.4	u	17	-0.3	7	2
63	CC(=O)N1N=C(c2cccc([N+](=O)[O-])c2)OC1(C)c1cccs1 (stereo not given)	x	2.8%	-4	2.2	-6	9
64	O=S(=O)(/N=C(/c1ccc(Cl)cc1)N1CCOCC1)c1ccc(Cl)cc1	-0.4	0.1%	0	0.5	-6	-30
65	CC(C)c1ccc(NC2CCCN(C(=O)CCn3cnnn3)C2)cc1 (stereo not given)	-0.2	-1.3%	-4	-2.5	14	-13
66	Oc1ccc(NCc2cccs2)cc1	-1.2	-0.5%	-12	u	9	23
67	Cc1ccc(-n2nnc(-c3nccs3)n2)cc1	-0.2	1.2%	6	0.5	10	-9

Bioassay records (PubChem BioAssay)
